Screening data (PubChem BioAssay)
VDR inhibitor = blocks the human vitamin D receptor; VDR-SRC2-3 peptide fluorescence polarization, 2 h; Potency, µM, for inactives: max response, negative = inhibition, hits mostly inhibitors; 400,000 compounds, 0.93% hits; AID 504847; active = well fitted inhibition curve with a large enough effect; inconclusive = small, poorly fitted or top-dose-only effect, or another doubt; inactive = no such curve, though single readings can be large or run the other way; note: series mostly up to about 120 µM
Target sequence (P11473 whole entry, looked up): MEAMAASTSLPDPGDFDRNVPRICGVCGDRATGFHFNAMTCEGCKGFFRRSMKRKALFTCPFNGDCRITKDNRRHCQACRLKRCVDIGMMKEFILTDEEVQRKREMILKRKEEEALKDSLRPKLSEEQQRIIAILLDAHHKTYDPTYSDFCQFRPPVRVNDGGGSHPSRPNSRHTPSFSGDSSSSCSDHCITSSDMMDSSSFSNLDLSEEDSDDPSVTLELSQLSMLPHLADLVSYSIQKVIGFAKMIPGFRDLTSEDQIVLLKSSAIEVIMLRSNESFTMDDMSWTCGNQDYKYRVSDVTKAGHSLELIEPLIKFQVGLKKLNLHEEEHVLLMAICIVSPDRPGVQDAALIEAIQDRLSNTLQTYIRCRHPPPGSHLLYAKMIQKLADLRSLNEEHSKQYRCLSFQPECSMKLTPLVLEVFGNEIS
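VDR–SRC2-3 interaction, FP format. Cmpds 23 nl via pintool, brief spin, 2 h ambient incubation.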
* hit, by the source's call; ? = inconclusive; & = joins results of further samples; [ ] = another dose, or the depositor's remark. % is set by controls: 0 for no effect and ±100 for the full control effect; potency is the fitted concentration of half-maximal effect.

cpd | canonical_smiles | VDR inhibitor
1 | Cc1ccccc1N1CCN(C2CCCN(C(=O)c3cn4cccc(C)c4n3)C2)CC1 (centres undefined) | 3%
2 | CN(CCNC(=O)C1CCN(c2ncnc3c2nc2n3CCCCC2)CC1)Cc1ccccc1 | -9%
3 | CCOC(=O)C1CCN(c2c(NCCN3CCN(c4ccccc4)CC3)c(=O)c2=O)CC1 | -11%
4 | O=C(COC(=O)/C=C/c1ccccc1Cl)NCCc1ccc(Cl)cc1Cl | -2%
5 | CC(=O)c1ccc(N2CCN(S(=O)(=O)c3ccc4c(c3)CC(=O)N4C)CC2)cc1 | 2%
6 | COc1ccc(C(=O)COC(=O)C2CCN(c3ccc(C(F)(F)F)cn3)CC2)c(OC)c1 | 2%
7 | CCOC(=O)C(=NC(C)CC)NNc1cccc(C(F)(F)F)c1 (centres undefined) | -3%
8 | CCC(=O)Nc1cccc(NC(=O)CSc2nnc(-c3ccc(NS(C)(=O)=O)cc3)n2C)c1 | 17%
9 | COC(=O)[C@@H]1C[C@@]2(O)[C@H](O)[C@H](O)[C@H](O)C[C@H]2N1CC(c1ccccc1)c1ccccc1 | 0%
10 | CC1(C)CC(=O)C(Br)=C(O)C1 | -10%
11 | CCCCNC(=O)c1ccc2c(c1)N(CC)C(=O)c1ccccc1S2(=O)=O | 8%
12 | CCOc1ccc(C(=O)Nc2ccc(Cl)cn2)cc1Cl | 7%
13 | OC(c1cccs1)(c1cccs1)C1C[N+]2(CF)CCC1CC2 (centres undefined) | 4%
14 | CCN(CC)C(=O)Cn1cc(S(=O)(=O)CC(=O)Nc2ccc(OC)c(OC)c2)c2ccccc21 | 0%
15 | COc1ccc(CC(=O)N2CCOCC2)cc1OC | 6%
16 | O=C(Nc1ccc(F)cc1)c1ccc2[nH]c(=O)c(=O)[nH]c2c1 | -11%
17 | C(=C\c1ccccc1)/CSc1nnc(-c2cccnc2)n1Cc1ccco1 | -9%
18 | O=C(CSc1ccccc1)Nc1ccc(N2CCOCC2)cc1 | 11%
19 | C=CCn1c(N)cc(=O)nc1SCC(=O)Nc1cccc2ccccc12 | 4%
20 | CN1CCN(C(=O)C2=C[C@@H](C3CC3)C[C@@H](OCc3ccc(CO)cc3)O2)CC1 | -12%
21 | COc1ccc(CCN2C(=NC(=O)CC(C)C)SC3CS(=O)(=O)CC32)cc1 (centres undefined) | 2%
22 | Cc1ccc(OCC(=O)Nc2ccc3nn(-c4ccc(C)cc4)nc3c2)cc1 | 2%
23 | O=C(O)C1CCCN1C(=O)C1CCN(S(=O)(=O)c2cccc(C(F)(F)F)c2)CC1 (centres undefined) | 11%
24 | CCNCCNC(=O)c1c(O)c2ccccc2n(CC)c1=O | 18%
25 | O=S(=O)(c1ccc(OCC(O)CN2CCN(c3ccccc3O)CC2)cc1)N1CCOCC1 (centres undefined) | 4%

An excerpt of these results, with each value named:
8) CCC(=O)Nc1cccc(NC(=O)CSc2nnc(-c3ccc(NS(C)(=O)=O)cc3)n2C)c1
  VDR inhibitor: 17%
11) CCCCNC(=O)c1ccc2c(c1)N(CC)C(=O)c1ccccc1S2(=O)=O
  VDR inhibitor: 8%

More structures
cpd | canonical_smiles | VDR inhibitor
26 | COc1ccc(CCC(=O)N2CCN(S(=O)(=O)c3ccc(OC(F)(F)F)cc3)CC2)cc1 | -12%
27 | Cc1ccsc1C(=O)NNC(=O)C1CC=CCC1C(=O)O (centres undefined) | -9%
28 | Cc1noc(C)c1S(=O)(=O)Nc1ccc(C(C)C)cc1 | -3%
29 | Cc1ccc(C)c(N2CCN(Cc3csc(C)c3)CC2)c1 | 12%
30 | CC(NC(=O)c1ccco1)c1cccc2ccccc12 (centres undefined) | -6%
31 | c1ccc(Nc2nc(-c3ccccc3)nc3ccccc23)cc1 | -12%
32 | CCOc1cc(C(=O)OCc2ccc(OC)cc2)ccc1OCC(=O)N1CCOCC1 | 1%
33 | Cc1ccc(S(=O)(=O)CCC(=O)OCC(=O)N(C)C2CCS(=O)(=O)C2)cc1 (centres undefined) | 22%
34 | CCN(CC(=O)Nc1ccc(OC)cc1)C(=O)COc1cccc2c1OC(C)(C)C2 | 14%
35 | CC(=O)Nc1ccc(S(=O)(=O)Nc2cc([N+](=O)[O-])ccc2C)cc1 | ?
36 | CC(C)Cc1nc(N2CCCCC2)c(C#N)c2c1CCC2 | 2%
37 | CCC(C)N(C(=O)CSc1ncnc2c1cnn2-c1ccccc1)C1CCS(=O)(=O)C1 (centres undefined) | -24%
38 | Cc1c(C(=O)N2CCCC2)oc2ccc(Br)cc12 | 9%
39 | CCN(C(=O)CSc1ncccc1C(=O)OC(C)C)c1cccc(C)c1 | -2%
40 | CCOc1cc(CNC(=O)C(NS(=O)(=O)c2cccs2)C(C)C)cc(OCC)c1OCC (centres undefined) | 4%
41 | CCOC(=O)C1=C(COC(=O)CNS(=O)(=O)c2ccc(NC(C)=O)cc2)NC(=O)NC1C (centres undefined) | 1%
42 | Fc1ccccc1-c1nnc2n1N=C(c1ccc(OC(F)F)c(OCC3CC3)c1)CS2 | 2%
43 | CN(C)CCCN(C(=O)CCc1ccccc1)c1nc2ccc(Cl)cc2s1 | -6%
44 | Cc1cc(C(=O)Nc2ccccc2C)on1 | 28%
45 | CCOC(=O)c1cc(-c2ccccc2)n(CC(=O)Nc2cc(OC)cc(OC)c2)c1C | -6%
46 | O=C(c1cc(F)c(F)cc1Cl)N1CCN(S(=O)(=O)c2cccs2)CC1 | -10%
47 | Cc1nc(-c2ccc(Cl)cc2)sc1CCNC(=O)C(=O)Nc1ccc2c(c1)OCCO2 | 0%
48 | COc1cccc(NS(=O)(=O)c2cc3[nH]c(=O)c(=O)[nH]c3cc2C)c1 | -8%
49 | c1ccc(CN(Cc2ccccc2)Cc2nnc(-c3cc4ccccc4[nH]3)s2)cc1 | -6%
50 | CN(C)CCN(C(=O)c1cccc(N2C(=O)CCC2=O)c1)c1nc2ccc(Br)cc2s1 | 5%

(more compounds)
cpd | canonical_smiles | VDR inhibitor
51 | CC(=O)Nc1ccc(C(=O)OCCC(C)C)cc1 | -2%
52 | COC(=O)CNC(=O)C(Cc1ccccc1)NS(=O)(=O)c1ccc2c(c1)c(=O)n(C)c(=O)n2C (centres undefined) | -2%&-4%
53 | Cc1cccn2c(=O)c3cc(C(=O)NCCc4ccccc4)sc3nc12 | 5%
54 | Cc1c(Br)c(C(=O)NNC(=O)c2ccc(C(C)(C)C)cc2)nn1C | -6%
55 | COc1ccc2c(c1)[nH]c1c(N3CCSCC3)ncnc12 | -21%
56 | Oc1ccccc1-c1cc(-c2ccccc2)no1 | -5%
57 | CCOC(=O)C1=C(C)NC(C)=C(C(=O)OCC)C1C(=O)OCC(N)=O | 12%
58 | Cn1cnnc1SCC(=O)Nc1ccc(Cl)cc1 | -24%
59 | Cc1cc(C)n(-c2nc3ccccc3nc2Nc2cc(Cl)ccc2C)n1 | -9%
60 | O=S(=O)(c1ccccc1)c1nc(-c2ccccc2)oc1N1CCCC1 | ?
61 | CCOC(=O)c1c(C)nc2c3ccccc3ccn12 | -6%
62 | COc1cc(CCC(=O)OCC(=O)Nc2ccc3c(c2)OCO3)cc(OC)c1OC | -1%
63 | O=C(COC(=O)C1CCN(S(=O)(=O)c2cccs2)CC1)Nc1ccccc1 | 1%
64 | FC(F)(F)c1cccc(N2CCN(Cc3nnc(-c4ccc5c(c4)OCO5)o3)CC2)c1 | -6%
65 | COc1ccc(C2=CC(=O)OC3(CCCCC3)O2)cc1 | -12%
66 | CC(=O)Nc1ccc(S(=O)(=O)N2CCN(CCc3ccccc3)CC2)cc1 | -19%
67 | O=C(O)C12CC3CC(C1)CC(n1ncc(N4CCN(c5ccccc5)CC4)c(Cl)c1=O)(C3)C2 | 4%
68 | O=C(/C=C/c1cccc(Cl)c1)NCc1ccncc1 | 6%
69 | C=CCN1C2CCCC1CC(NC(=O)Nc1cccc(C(C)=O)c1)C2 (centres undefined) | 0%
70 | COc1ccc(C(CNC(=O)c2cccc(N(C)C)c2)N2CCCC2)cc1 (centres undefined) | 6%
71 | O=C1CSc2ccc(S(=O)(=O)NCc3ccc(F)cc3)cc2N1 | -24%
72 | COc1ccc(C(=O)/C=C/c2ccccc2)cc1 | 25µM*
73 | N/C(=N\OC(=O)c1ccc(=O)n(Cc2ccc(Cl)cc2)c1)c1ccccn1 | -11%
74 | O=c1[nH]c(CN2CCN(S(=O)(=O)c3ccc4ccccc4c3)CC2)nc2ccccc12 | -3%
75 | Nc1c(Cl)cc2c(c1Oc1ccccc1)C(=O)c1ccccc1C2=O | 15%

VDR inhibitor: what is marked active above
cpd | canonical_smiles | VDR inhibitor
72 | COc1ccc(C(=O)/C=C/c2ccccc2)cc1 | 25µM*

(cont.)
cpd | canonical_smiles | VDR inhibitor
76 | NC(=O)C1CCN(CC(=O)Nc2ccccn2)CC1 | ?
77 | Cc1ccc(N2CC(NC(=O)N3CCN(C(=O)c4ccco4)CC3)CC2=O)cc1 (centres undefined) | -18%
78 | CCN(CC)C(=O)CSc1ncccc1-c1nc2ccccc2[nH]1 | 20%
79 | O=C1CN(C(=O)CSc2nc3c(cnn3-c3ccccc3)c(=O)[nH]2)c2ccccc2N1 | 20%
80 | O=C(Nc1nnc(-c2ccccc2)o1)c1nc2ccccc2s1 | 4%
81 | CC1CCN(C(=O)CSc2nc3ccccc3c(=O)[nH]2)CC1 | -1%
82 | CN(CC(=O)Nc1ccc(F)c(F)c1F)C(=O)Cn1cnc2c1c(=O)n(C)c(=O)n2C | -14%
83 | Cc1ccc2nc(COc3cccc(NC(=O)COc4ccccc4F)c3)cc(=O)n2c1 | -8%
84 | CCOc1ccc(-c2c(C)nn3c(C)c(C(=O)NCCc4ccccc4)cnc23)cc1OCC | 6%
85 | O=C(NCc1ccc2c(c1)OCO2)c1ccc(Br)o1 | 14%
86 | O=C(NC(NCc1ccccn1)(C(F)(F)F)C(F)(F)F)c1ccco1 | -22%
87 | COc1ccc(OCCCC(=O)NCCc2nc3ccccc3[nH]2)cc1 | -22%
88 | Cc1ccc(-n2nc(-c3ccc(F)cc3)c3cnc4cc5c(cc4c32)OCO5)cc1C | 1%
89 | CC(C)(C)C(=O)N1CCC2CC1c1cc(Cl)ccc12 (centres undefined) | -21%
90 | CCCCc1sc(-c2c(C#N)c(N)nc3c2CCCCC3)cc1[N+](=O)[O-] | -5%
91 | CCCCc1nc(C(N)=O)c2[nH]c(=O)n(-c3ccc(OC)c(OC)c3)c2n1 | -8%
92 | Cc1cc(C(=O)NNc2cc(Cl)ccc2Cl)no1 | 31%[activator]
93 | CCc1ccc(NC(=O)CCc2ccc(C)o2)cc1 | 0%
94 | O=C(O)CCC(=O)N1CCN(c2nc(-c3ccccc3Cl)c3cc(Br)ccc3n2)CC1 | 20%
95 | COc1ccc(C)cc1-n1nnnc1SCC(=O)NC1CC1 | 4%
96 | Cn1c(=O)oc2cc(S(=O)(=O)Nc3ccc(C(=O)O)cc3)ccc21 | 7%
97 | CCCc1c(O)nc(SCC(=O)NCCc2ccc(OC)c(OC)c2)[nH]c1=O | -4%
98 | COC(=O)COc1cccc(NS(=O)(=O)c2cccc([N+](=O)[O-])c2)c1 | -4%
99 | CC(=O)Nc1nnc(SCC(=O)Nc2ccc(N3CCOCC3)c(Cl)c2)s1 | 15%
100 | CC(C)Oc1ccc(CNC(=O)Oc2ccccc2)cc1 | -13%

Grouped by structure, those above containing a tert-butyl group.
cpd | canonical_smiles | VDR inhibitor
54 | Cc1c(Br)c(C(=O)NNC(=O)c2ccc(C(C)(C)C)cc2)nn1C | -6%
89 | CC(C)(C)C(=O)N1CCC2CC1c1cc(Cl)ccc12 (centres undefined) | -21%

2 records picked at random from the list so far:
cpd | canonical_smiles | VDR inhibitor
83 | Cc1ccc2nc(COc3cccc(NC(=O)COc4ccccc4F)c3)cc(=O)n2c1 | -8%
95 | COc1ccc(C)cc1-n1nnnc1SCC(=O)NC1CC1 | 4%

(cont.)
cpd | canonical_smiles | VDR inhibitor
101 | Cc1ccccc1NCc1ccc([N+](=O)[O-])s1 | -25%
102 | COc1ccc(NC(=O)C2CCCCN2N)cc1OCC(C)C (centres undefined) | -2%
103 | COc1ccc(N2CCN(C(C)C(=O)N3CCc4ccccc43)CC2)cc1 (centres undefined) | -12%
104 | Cc1cc(C)c(NC(=O)NC2CCCCC2)c(C)c1 | -4%
105 | C=CCC1c2cccc(C(=O)O)c2C(=O)N1c1cccc(OC)c1 (centres undefined) | -6%
106 | Cc1cc(C)nc(SCCC(=O)Nc2cccc3ccccc23)n1 | 8%
107 | COc1cccc(NC(=O)CSc2nc3c(oc4ccccc43)c(=O)n2Cc2ccco2)c1 | -11%
108 | CC1CCCCC12NC(=O)N(CC(=O)NC1CCCc3ccccc31)C2=O (centres undefined) | -17%
109 | CC(=O)N1CCN(CC(=O)NC(=O)Nc2ccc3c(c2)OCCO3)CC1 | -20%
110 | Cc1cccc(NC(=O)N2CCN(C(=O)c3nsc4ccccc34)CC2)c1C | 13%
111 | Cc1ccc(S(=O)(=O)N2[C@@H](c3ccccc3)C(C(=O)O)=CC[C@H]2c2ccc(Cl)c(Cl)c2)cc1 | ?
112 | COc1ccc(CNC(=O)c2ccc(S(=O)(=O)N3CC(C)CC(C)C3)cc2)cc1OC (centres undefined) | -8%
113 | Cc1nc2ccccn2c1C(=O)N=Nc1c(O)[nH]c2ccccc12 | 1%
114 | Cc1ncc([N+](=O)[O-])n1CC(=O)Nc1cc(Cl)ccc1Cl | -6%
115 | COc1cccc([C@@H]2CC=C(C(=O)O)[C@H](c3ccc(C)cc3)N2S(=O)(=O)c2ccc(C)cc2)c1 | -19%
116 | O=[N+]([O-])c1ccc2c(c1)C(=NO)c1cc(F)ccc1-2 | -19%
117 | COc1ccc(CNC(=O)C(NS(=O)(=O)c2cccc3nsnc23)C(C)C)cc1 (centres undefined) | -18%

This is a subset; the hit share may differ from the screen's.
